Screening results deposited in PubChem by Broad Institute.
Vaccinia inh – blocks a specific stage of Vaccinia orthopoxvirus infection, primary screen, cell-based, single point | actives 0.01% (n = 89,000) | Vaccinia-infected cells, mCherry/Venus stage reporter fluorescence; active compounds read low; some inactives read as strong as hits | AID 1053133, 2014 | activity change (mCherry), % (no concentration beside the values);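 active = mCherry past -33% and 40 or more points under the early reporter, replicates agreeing; inconclusive = past -33% without that gap or agreement; tested in A549 cells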;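 note: scaled between vehicle wells and reference inhibitor wells; 23 nL library stock went into each well; one replicate is shown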
Vaccinia inh Venus – further read-out of Vaccinia inh, marked with its call; activity change (Venus), %; measured here: Venus reporter, other viral stage;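 negative = less Venus signal; first of two replicates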
* = called active by the depositor; ? = inconclusive; . = no result given; & = joins results of further samples.

SMILES | Vaccinia inh | Vaccinia inh Venus
CCS(=O)(=O)N1CC(=O)N2[C@@H](CO)[C@H](c3ccc(C#Cc4ccc(F)cc4)cc3)[C@@H]2C1 | -19.7 | -13.9
C[C@H]1CN([C@@H](C)CO)C(=O)c2cc(C#Cc3cccnc3)cnc2O[C@H]1CN(C)Cc1ccc(F)cc1 | 10.4&0.7 | -2.0&-3.5
Cc1noc(C)c1NC(=O)N(C)C[C@H]1Oc2cc(C#CCC(C)C)ccc2S(=O)(=O)N([C@@H](C)CO)C[C@@H]1C | -7.0 | -21.5
COc1cccc(S(=O)(=O)N2C[C@H](O)COC[C@H]3O[C@H](CC(=O)N4CCCCC4)CC[C@@H]32)c1 | 0.6 | -0.6
C[C@@H](O)C#Cc1ccc2c(c1)O[C@@H](CN(C)C(=O)CC1CC1)[C@@H](C)CN([C@@H](C)CO)S2(=O)=O | 7.6 | 14.3
C[C@@H]1CN([C@@H](C)CO)C(=O)c2cc(-c3cccc(F)c3)cnc2O[C@H]1CN(C)Cc1ccccn1 | 8.8 | 7.8
CNC[C@H]1OCCCC[C@H](C)Oc2ccc(NS(C)(=O)=O)cc2C(=O)N([C@@H](C)CO)C[C@H]1C | 18.1 | 13.4
C[C@H]1CN([C@@H](C)CO)C(=O)c2cc(-c3ccc(C#N)cc3)cnc2O[C@@H]1CN(C)C(=O)CC1CC1 | 2.8 | -0.6
C[C@@H]1CN([C@@H](C)CO)S(=O)(=O)c2ccc(-c3cncnc3)cc2O[C@@H]1CN(C)C(=O)Cc1ccccc1 | 0.9 | -1.3
C[C@@H]1CN([C@H](C)CO)C(=O)c2cccc(NS(=O)(=O)c3cccs3)c2O[C@@H]1CN(C)S(=O)(=O)c1ccc(Cl)cc1 | -3.0 | 1.5
Cc1ccc(S(=O)(=O)Nc2ccc3c(c2)C(=O)N([C@H](C)CO)C[C@@H](C)[C@H](CN(C)C)O3)cc1 | 13.3 | -0.2
CN1C(=O)c2cc(NC(=O)c3ccc(F)cc3)ccc2OC[C@@H]2O[C@@H](CC(=O)O)CC[C@H]21 | -5.7 | -2.2
CCC(=O)N(C)C[C@H]1Oc2ncc(C#CCc3ccccc3)cc2C(=O)N([C@@H](C)CO)C[C@@H]1C | 19.8 | 8.7
O=C(C[C@H]1CC[C@H](NC(=O)c2ccncc2)[C@H](CO)O1)NCC1CCCCC1 | 3.4 | 2.9
Cc1noc(C)c1NC(=O)N(C)C[C@@H]1Oc2c(NC(=O)NC3CCCCC3)cccc2C(=O)N([C@@H](C)CO)C[C@@H]1C | 4.9 | 3.3
COc1ccc(NC(=O)N(C)C[C@H]2OCCCC[C@H](C)Oc3ccc(NS(C)(=O)=O)cc3C(=O)N([C@@H](C)CO)C[C@H]2C)cc1 | 9.0 | 6.8
CCCN1[C@@H]2c3ccc(-c4ccccc4)c(=O)n3C[C@@H]2[C@@H](CO)[C@@H]1C(=O)N[C@H](C)c1ccccc1 | -14.1 | -16.0
Cc1ccccc1S(=O)(=O)N1CCCCN2[C@H](C1)[C@H](c1ccc(C#CCN(C)C)cc1)[C@@H]2CO | -32.4 | -19.5
Cc1cccc(-c2ccc([C@H]3[C@@H](CO)N4CCCCN(C(=O)c5ccc6c(c5)OCO6)C[C@H]34)cc2)c1 | ? | .
C[C@H](CO)N1C[C@H](C)[C@@H](CN(C)Cc2ccc(Cl)c(Cl)c2)Oc2c(NS(=O)(=O)c3cccs3)cccc2C1=O | -10.8 | -6.8
CC(C)NC(=O)Nc1ccc2c(c1)C(=O)N([C@@H](C)CO)C[C@H](C)[C@@H](CN(C)S(=O)(=O)c1ccc(Cl)cc1)O2 | 3.7 | 5.1
CO[C@H](CN(C)S(=O)(=O)c1ccc(C)cc1)[C@@H](C)CN([C@@H](C)CO)S(=O)(=O)c1cccc(Cl)c1 | ? | .
O=C(C1CCOCC1)N1CC(=O)N2[C@@H](CO)[C@@H](c3ccc(C#CC4CCCCC4)cc3)[C@@H]2C1 | -3.9 | -18.2
O=C(C1=C[C@H](C2CCCCC2)C[C@H](OCc2ccc(CO)cc2)O1)N1CCN(Cc2ccc3c(c2)OCO3)CC1 | ? | .
CCCC(=O)Nc1ccc2c(c1)C(=O)N(C)C[C@@H](OC)[C@@H](C)CN(Cc1ccc(-c3ccccn3)cc1)[C@H](C)CO2 | -14.7 | -17.9
CN1C(=O)c2cc(NC(=O)NC3CCCC3)ccc2OC[C@H]2O[C@@H](CC(=O)NCC3CC3)CC[C@@H]21 | 12.3 | 11.1
C[C@H](CO)N1C[C@H](C)[C@@H](CN(C)Cc2ccncc2)Oc2ccc(NS(=O)(=O)c3ccc(F)cc3)cc2C1=O | 10.3 | 10.2
C[C@H](CO)N1C[C@H](C)[C@@H](CN(C)C(=O)NC2CCCCC2)Oc2ccc(NC(=O)c3ccncc3)cc2CC1=O | 20.3 | 12.9
C[C@@H]1CCCCO[C@H](CN(C)C(=O)C2CCCCC2)[C@@H](C)CN([C@H](C)CO)C(=O)c2cc(NC(=O)c3ccccc3)ccc2O1 | -3.6 | -6.2
Cc1noc(C)c1S(=O)(=O)N(C)C[C@@H]1Oc2ccc(NC(=O)CCC(F)(F)F)cc2CC(=O)N([C@H](C)CO)C[C@H]1C | 12.8 | 5.7
Cc1cc(C(=O)Nc2ccc3c(c2)C(=O)N(C)[C@@H]2CC[C@@H](CC(=O)N[C@@H](C)c4ccccc4)O[C@H]2CO3)no1 | -10.1 | -3.6
CNC[C@@H]1Oc2c(NC(=O)Nc3c(C)noc3C)cccc2C(=O)N([C@H](C)CO)C[C@H]1C | 9.6 | 0.9
C[C@@H]1CN([C@H](C)CO)C(=O)Cc2cc(NS(=O)(=O)c3cn(C)cn3)ccc2O[C@@H]1CN(C)Cc1ccccc1 | -0.4 | 3.0
COc1ccc2c3c([nH]c2c1)[C@H](CO)N(C(=O)C1CCCCC1)CC31CN(S(C)(=O)=O)C1 | 2.6 | 0.0
COc1ccc(NC(=O)N(C)C[C@H]2Oc3ccc(NS(=O)(=O)c4ccc(OC)cc4)cc3CC(=O)N([C@H](C)CO)C[C@H]2C)cc1 | 5.1 | 7.7
Cc1ccc(S(=O)(=O)N(C)C[C@@H]2Oc3ncc(C#Cc4ccc(C(F)(F)F)cc4)cc3C(=O)N([C@H](C)CO)C[C@@H]2C)cc1 | ? | .
C[C@@H]1CCCCO[C@@H](CN(C)Cc2ccc3c(c2)OCO3)[C@@H](C)CN([C@@H](C)CO)C(=O)c2cc(NC(=O)c3ccncc3)ccc2O1 | -4.7 | -5.7
O=C(C[C@H]1CC[C@@H]2[C@H](COC[C@H](O)CN2C(=O)Nc2ccc(C(F)(F)F)cc2)O1)NC1Cc2ccccc2C1 | -25.6 | -13.6
C[C@@H]1CN([C@@H](C)CO)C(=O)c2cccc(NC(=O)Nc3ccccc3)c2O[C@H]1CN(C)Cc1ccc(C(F)(F)F)cc1 | ? | .
COc1ccc(S(=O)(=O)Nc2ccc3c(c2)CC(=O)N([C@@H](C)CO)C[C@H](C)[C@H](CN(C)C(=O)Nc2cccc4ccccc24)O3)cc1 | 32.2 | 15.8
CCC(=O)Nc1ccc2c(c1)C(=O)N(C)[C@@H]1CC[C@H](CC(=O)NCCN3CCCCC3)O[C@H]1CO2 | 13.3 | 9.0
CN(C)C(=O)c1cccc(-c2ccc([C@@H]3[C@H](CO)N4CCCCN(S(C)(=O)=O)C[C@@H]34)cc2)c1 | 33.1 | 7.6
CC(C)NC(=O)Nc1ccc2c(c1)C(=O)N([C@@H](C)CO)C[C@H](C)[C@@H](CN(C)S(=O)(=O)c1cn(C)cn1)OCCCC[C@@H](C)O2 | 5.8 | 0.3
CC(C)NC(=O)N1CCCCN2[C@H](CO)[C@H](c3ccc(C#CC4CC4)cc3)[C@H]2C1 | -25.8 | -13.5
COc1ccc(NC(=O)Nc2ccc3c(c2)[C@@H]2C[C@H](CC(=O)NCc4ccccn4)O[C@@H](CO)[C@@H]2O3)cc1 | 12.0 | 6.6
COc1cccc(-c2cn(CC[C@@H]3CC[C@@H](NC(C)=O)[C@@H](CO)O3)nn2)c1 | 1.9 | 3.4
CC(C)NC(=O)Nc1cccc2c1O[C@H](CN(C)S(C)(=O)=O)[C@H](C)CN([C@H](C)CO)C2=O | 18.3 | 9.2
CO[C@H]1CN(C)C(=O)c2cc(NC(=O)c3cnccn3)ccc2OC[C@@H](C)N(CC2CC2)C[C@H]1C | 26.3 | 19.1
O=S(=O)(c1ccccc1)N1[C@@H]2CNC[C@H]1C2c1ccc(-c2cccc(F)c2)cc1 (stereo not given in full) | 11.6&2.3 | 12.4&-6.2
O=C(C1CC1)N1CC(=O)N2[C@@H](CO)[C@@H](c3ccc(C#Cc4cccc(F)c4)cc3)[C@@H]2C1 | ? | .
Next results follow:
SMILES | Vaccinia inh | Vaccinia inh Venus
CO[C@H]1CN(C)C(=O)c2cc(NC(=O)Nc3cc(F)ccc3F)ccc2OC[C@H](C)NC[C@@H]1C | -31.8 | -24.4
C[C@@H](NC(=O)C[C@H]1CC[C@H]2[C@@H](COC[C@@H](O)CN2Cc2cc(F)ccc2F)O1)c1ccccc1 | 4.6 | 4.1
N#C[C@@H]1[C@@H](c2ccc(C#CC3CCCC3)cc2)[C@@H](CO)N1C(=O)c1cccc(F)c1 | ? | .
COc1ccccc1NC(=O)N[C@@H]1CC[C@@H](CCNC(=O)c2ccc3c(c2)OCO3)O[C@@H]1CO | -6.3 | -8.7
COc1ccc(S(=O)(=O)Nc2ccc3c(c2)C(=O)N([C@H](C)CO)C[C@H](C)[C@H](CN(C)S(C)(=O)=O)OCCCC[C@H](C)O3)cc1 | 11.2 | 5.3
C[C@@H]1CCCCO[C@H](CN(C)Cc2ccc(C(=O)O)cc2)[C@@H](C)CN([C@@H](C)CO)C(=O)c2cc(NC(=O)c3ccccc3)ccc2O1 | 3.8 | -3.8
C/C=C/c1ccc2c(c1)O[C@@H](CN(C)C(=O)Nc1ccccc1)[C@@H](C)CN([C@@H](C)CO)S2(=O)=O | -24.7 | -18.9
CN(C)c1ccc2c(c1)[C@@H]1C[C@@H](CC(=O)NCc3ccncc3)O[C@H](CO)[C@@H]1O2 | -3.2 | -1.9
C[C@H](CO)N1C[C@H](C)[C@H](CN(C)C(=O)Cc2ccccc2)Oc2cc(C3=CCCCC3)ccc2S1(=O)=O | ? | .
C[C@@H]1CN([C@@H](C)CO)C(=O)c2cc(NC(=O)C3CC3)ccc2O[C@@H]1CN(C)CC1CC1 | -3.1 | -0.6

Part of the list above, field by field.
> CO[C@H]1CN(C)C(=O)c2cc(NC(=O)Nc3cc(F)ccc3F)ccc2OC[C@H](C)NC[C@@H]1C
  Vaccinia inh: -31.8	Vaccinia inh Venus: -24.4

> C[C@@H]1CN([C@@H](C)CO)C(=O)c2cc(NC(=O)C3CC3)ccc2O[C@@H]1CN(C)CC1CC1
  Vaccinia inh: -3.1	Vaccinia inh Venus: -0.6

(next part)
SMILES | Vaccinia inh | Vaccinia inh Venus
C[C@@H]1CCCCO[C@@H](CN(C)Cc2ccc(C(=O)O)cc2)[C@H](C)CN([C@H](C)CO)C(=O)c2cc(NS(=O)(=O)c3ccc(F)cc3)ccc2O1 | 36.5 | 11.5
CC(C)C(=O)Nc1ccc2c(c1)C(=O)N(C)[C@@H]1CC[C@H](CC(=O)NCC3CC3)O[C@H]1CO2 | 7.7 | 3.2
CO[C@H]1CC[C@H]2CCN(C)C(=O)[C@H](C)[C@@H](OC)CN(C)C(=O)c3cccc(C#N)c3OC[C@H]1O2 | 14.8 | 4.6
O=C(N[C@H]1C=C[C@@H](CC(=O)N2CCc3ccccc3C2)O[C@@H]1CO)C1CCC1 | 2.7 | 3.3
COc1ccc(-c2cnc3c(c2)C(=O)N([C@@H](C)CO)C[C@H](C)[C@@H](CN(C)C(=O)Cc2ccccn2)O3)cc1 | 7.7 | 6.8
CCS(=O)(=O)NCC[C@H]1CC[C@H](NC(=O)Cc2ccccn2)[C@@H](CO)O1 | 13.1 | 10.5
N#Cc1ccc(-c2ccc([C@@H]3[C@@H](CO)N4CCCCN(C(=O)Cc5ccccc5)C[C@H]34)cc2)cc1 | -21.4 | -20.9
C[C@@H]1CN([C@H](C)CO)S(=O)(=O)c2ccc(C#Cc3ccccc3)cc2O[C@@H]1CN(C)C | ? | .
Cc1ccc(-c2cnc3c(c2)C(=O)N([C@@H](C)CO)C[C@H](C)[C@H](CN(C)Cc2ccccc2C(=O)O)O3)cc1 | -6.8 | -1.4
C[C@@H]1CN([C@H](C)CO)C(=O)c2cc(-c3cccnc3)cnc2O[C@@H]1CN(C)C | 7.7 | -3.7
Cn1cnc(S(=O)(=O)N[C@H]2CC[C@@H](CC(=O)NCC3CC3)O[C@@H]2CO)c1 | 17.2 | 6.0
O=C(Cc1ccccn1)N1CC(=O)N2[C@H](CO)[C@@H](c3ccc(C#CC4CCCC4)cc3)[C@@H]2C1 | -16.3 | -15.6

Reformatted as labelled records: four of the compounds above.
> O=C(N[C@H]1C=C[C@@H](CC(=O)N2CCc3ccccc3C2)O[C@@H]1CO)C1CCC1
  Vaccinia inh = 2.7
  Vaccinia inh Venus = 3.3

> COc1ccc(-c2cnc3c(c2)C(=O)N([C@@H](C)CO)C[C@H](C)[C@@H](CN(C)C(=O)Cc2ccccn2)O3)cc1
  Vaccinia inh = 7.7
  Vaccinia inh Venus = 6.8

> O=C(Cc1ccccn1)N1CC(=O)N2[C@H](CO)[C@@H](c3ccc(C#CC4CCCC4)cc3)[C@@H]2C1
  Vaccinia inh = -16.3
  Vaccinia inh Venus = -15.6

> N#Cc1ccc(-c2ccc([C@@H]3[C@@H](CO)N4CCCCN(C(=O)Cc5ccccc5)C[C@H]34)cc2)cc1
  Vaccinia inh = -21.4
  Vaccinia inh Venus = -20.9

A portion of the library. The share of hits here may be higher or lower than overall.
